# HIV TAR-Tat: TAR RNA-Tat peptide displacers, HIV-1, primary screen, biochemical, FRET, FAM/TAMRA-labeled Tat; 0.6% of 100,000 active; z-score (concentration not given with the values); HIV-1 TAR RNA, Tat peptide displacement FRET; hits give high values; AID 1259389, 2018;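 also: score is relative to mean and SD of negative controls; some compounds called inactive have numbers as strong as hits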
# CDC25B-CDK2 inh: primary biochemical HTRF screen for blockers of M-phase inducer phosphatase 2 binding to CDK2/cyclin A; z-score (concentration not given with the values); 0.72% of 94,000 active; HTRF CDC25B-CDK2/CyclinA binding, anti-His/anti-Flag; hits give high values; P30305+P24941;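 also: score is relative to mean and SD of negative controls; strong numbers were not always called active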
# Numbers without * were called inactive; · = not tested or not shown.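 The calls were made as follows: active = z-score from 3 up in half or more of its runs; inactive = the rest.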 Rows are unselected; about 0.9% have a hit in one of these screens.
# Under each structure – HIV TAR-Tat, CDC25B-CDK2 inh
CC1CCN(S(=O)(=O)c2ccc3c(c2)CCN3C(=O)Nc2cccc(Br)c2)CC1
    1, -2.4
Cc1ccc(Cn2c(NCCN(C)C)nc3c2c(=O)n(C)c(=O)n3C)cc1
    ·, 0.87
S=C(NNC(=S)NC1CC2C=CC1C2)NC1CC2C=CC1C2 (configuration not stated)
    ·, -1.5
Cc1nnc(SCc2cc(=O)n3nc(C)sc3n2)s1
    0.25, -1.3
CC(=O)Nc1nc2nc(C)c(Cl)c(=O)n2[nH]1
    0.67, -1.1
CC(C)CCN1C=NS(=O)(=O)c2ccccc21
    ·, -1.2
N#CCc1nc(-c2ccccc2)cs1
    ·, -1.5
CCOC(=O)Nc1ccc2c(c1)CCC(=O)N2
    1.8, ·
CN1CCc2c(sc3c2C(=O)NC(c2cccc(O)c2)N3)C1 (configuration not stated)
    -1.8, 0.11
CCOC(=O)c1ccc2nc(C(F)(F)F)cc(N3CCN(Cc4ccccc4)CC3)c2c1
    ·, -2.5
CCCCN(C)c1ncnc2c1sc1nc(C)c3c(c12)CC(C)(C)OC3
    0.61, 0.34
CN1C(=O)[C@H](Cc2ccc([N+](=O)[O-])cc2)NC1=S
    ·, -2
COc1cc(S(=O)(=O)NCCN2CCOCC2)ccc1-n1cnnn1
    -1.3, -0.32
COc1ccc(NC2c3ccccc3C(=O)N2c2ccc(Cl)cc2)cc1 (configuration not stated)
    1.5, -0.09
CN(C)/N=C/c1ccc([N+](=O)[O-])o1
    ·, -1.4
O=C1NC(c2ccc(O)cc2)c2c1n[nH]c2-c1cccs1 (configuration not stated)
    0.23, -0.77
CCC1CN(C(=O)Nc2cccc(SC)c2)c2cc(Cl)ccc2O1 (configuration not stated)
    1.2, ·
CCOc1ccccc1-c1cn2ncsc2n1
    1.3, 0.32
Cc1nc(N2CCOCC2)cc(N2CCN(C(=O)c3cccs3)CC2)n1
    0.22, -0.94
O=S(=O)(NCc1cn2ccsc2n1)c1ccc(Cl)cc1
    ·, 0.3
O=C1CN(Cc2ccccc2F)S(=O)(=O)c2ccccc2N1Cc1cccc(F)c1
    0.97, ·
Cc1ccc(OCCSc2nnc(Cc3c(C)nc4ccccn4c3=O)n2C)cc1
    0.38, -1
Nc1ccc(S(=O)(=O)NCc2cccnc2)cc1
    1.7, 0.81
Cn1nc(C(=O)NCC2CCCO2)c2c1-c1ccccc1S(=O)(=O)C2 (configuration not stated)
    0.98, -2.6
Fc1ccccc1CN1CCc2nc(N3CCN(c4ccccc4)CC3)ncc2C1
    0.24, ·
Cc1cc([N+](=O)[O-])ccc1-c1ccc(C(=O)Nc2ccc(O)c(-c3nc4ccccc4o3)c2)o1
    ·, -3.2
CC(=O)N1N=C(c2ccc(Cl)cc2)OC1c1nc2nc(C)cc(C)n2n1 (configuration not stated)
    0.89, ·
Cc1cc(C)c2c(=O)cc(CN(C)Cc3ccc(F)cc3)[nH]c2c1
    1.2, ·
COc1ccc(S(N)(=O)=O)cc1-c1noc(C(C)(C)C)n1
    1.7, -3.1
CCOC(=O)/C(=C\Nc1ccc(Cl)cc1)[N+](=O)[O-]
    ·, -1.3

# Continued, starting with the last 5 of the part before.
# Under each structure – HIV TAR-Tat, CDC25B-CDK2 inh
Cc1cc([N+](=O)[O-])ccc1-c1ccc(C(=O)Nc2ccc(O)c(-c3nc4ccccc4o3)c2)o1
    ·, -3.2
CC(=O)N1N=C(c2ccc(Cl)cc2)OC1c1nc2nc(C)cc(C)n2n1 (configuration not stated)
    0.89, ·
Cc1cc(C)c2c(=O)cc(CN(C)Cc3ccc(F)cc3)[nH]c2c1
    1.2, ·
COc1ccc(S(N)(=O)=O)cc1-c1noc(C(C)(C)C)n1
    1.7, -3.1
CCOC(=O)/C(=C\Nc1ccc(Cl)cc1)[N+](=O)[O-]
    ·, -1.3
Cc1cccc2cc3c(nc12)N(C(=O)CC(C)C)CC3
    -3.5, -1.5
COc1ccc(N2CCN(S(=O)(=O)c3cccs3)CC2)cc1
    0.58, -1.4
O=C(Cn1cc(S(=O)(=O)c2ccccc2)c(=O)c2cc3c(cc21)OCO3)Nc1ccc(F)cc1
    0.77, -0.88
O=C1CC(c2cccc(Cl)c2)c2cc3c(cc2N1)OCCO3 (configuration not stated)
    -0.24, -0.81
O=C(NCC1CCCO1)c1cccc(Nc2nc3ccccc3n3cnnc23)c1 (configuration not stated)
    -0.53, ·
CC(NC(=O)C(NC(=O)OCc1ccccc1)C(C)C)C(=O)OCc1ccc([N+](=O)[O-])cc1 (configuration not stated)
    ·, -2.5
N#Cc1sc2sc(C#N)c(-c3cccs3)c2c1N
    ·, 0.09
COc1ccc(C2=C(C)C(Nc3cc(Cl)ccc3C)=NS2(=O)=O)cc1
    0.02, -1.4
CCOc1ccc(N2C(=O)Nc3ccccc3C2(O)C(=O)NCCN(C)C)cc1 (configuration not stated)
    ·, 0.6
O=C(Cn1c(=O)n(-c2ccc(F)cc2)c(=O)c2sccc21)NCc1ccco1
    ·, -0.17
C=CCSc1nnc(NC(=O)c2cc(-c3ccc(Cl)cc3)on2)s1
    2.9, -2.9
O=C(CC1(O)C(=O)Nc2ccc(F)cc21)c1ccc(Cl)cc1 (configuration not stated)
    1.4, ·
O=C(O)CCC(=O)CCC(=O)c1ccc(Cl)cc1
    2.5, -0.71
O=C(COc1ccc2ccccc2c1)Nc1cc(=O)[nH]c(=O)[nH]1
    0.36, ·
CCOC(=O)c1c(S(=O)(=O)N2CCCCC2)c(C)n(C)c1C
    0.8, ·
CCCSc1ncc(CO)n1Cc1ccc(Cl)cc1
    1.8, ·
Cc1ccc2ncc(C(=O)NC(C)(C)C)c(=O)n2c1
    0.7, -1.2
CCOc1ccccc1-c1nnc(CS(=O)(=O)c2ccccc2)o1
    1.5, -1.1
Cc1nc2nc(Cc3cccc(F)c3)nn2c(NCc2ccc3c(c2)OCO3)c1C
    1.6, ·
CC1CCC(NC(=O)c2ccc(NC3=NC4CS(=O)(=O)CC4S3)cc2)CC1 (configuration not stated)
    3.4, ·
O=c1ccc(-c2ccc(S(=O)(=O)Nc3ccc(F)cc3)o2)n[nH]1
    1.6, ·
CC(C)Cc1nn2c(=O)cc(COc3ccc(NC(=O)c4ccco4)cc3)nc2s1
    -0.23, -1.3
O=C(NCc1ccc2c(c1)OCO2)c1cccnc1Oc1ccccc1
    ·, -1.7
Cc1cc(S(=O)(=O)[C@H]2CS(=O)(=O)C[C@@H]2N2CCN(Cc3ccccc3)CC2)ccc1F
    1.7, -1
CCCCNC(=O)c1cc(C)on1
    -1.2, -3.7
O=C(NCc1ccccc1)c1ccc([N+](=O)[O-])o1
    ·, 1.1
CC(C)(C)c1ccc(C2NC(=O)NC(O)(C(F)(F)F)C2C(=O)c2ccc(Cl)cc2)cc1 (configuration not stated)
    ·, -2.1
CCN1CCN(c2nc3c(S(=O)(=O)c4ccc(Cl)cc4)nnn3c3ccsc23)CC1
    -0.38, ·
O=S(=O)(c1ccc(Oc2ccc(S(=O)(=O)N3CCOCC3)cc2)cc1)N1CCOCC1
    ·, -0.18
O=C(c1ccc(Cl)cc1)N1CCN(c2ccc3nnc(-c4ccc(F)cc4)n3n2)CC1
    0.86, -0.98

# Other entries follow:
# Under each structure – HIV TAR-Tat, CDC25B-CDK2 inh
CCCCN(C)S(=O)(=O)c1ccc(C)c(-c2nnc3c4ccccc4c(C)nn23)c1
    2.1, -2.3
C=CCOc1ccc(C2c3c(-c4c(C)cc(C)cc4O)n[nH]c3C(=O)N2CCO)cc1 (configuration not stated)
    -0.53, -1.1
CCCNC(=O)c1cc2cc3ccc(Cl)cc3nc2o1
    -2.5, ·
CCCc1nc(SC)ncc1C(=O)NC1CC1
    -1.4, ·
CC(=O)NC(=S)NNC(=O)c1cccc([N+](=O)[O-])c1
    ·, -2.4
COC(=O)c1c(O)cc(=O)[nH]c1N
    -0.57, -2.8
CC(C)(C)NS(=O)(=O)c1ccc(N2CCCCS2(=O)=O)cc1
    -1.5, ·
CCN(CC)c1ccc2nc3c(=O)n(C)c(=O)n(C)c3nc2c1
    -6.2, -3.3
COCc1nn2cc(-c3ccccc3)nc2s1
    0.78, -0.81
Cn1nnnc1SCCCNCc1ccccc1OCc1ccccc1Cl
    0.94, 1
CCOC(=O)C1CCCN(S(=O)(=O)c2ccc3c(c2)N(C(C)=O)CCO3)C1 (configuration not stated)
    1.2, -0.88
CCSc1nc2sc3c(c2c(=O)n1CC)CCCC3
    ·, 1.2
CCOc1ccc(S(=O)(=O)[C@H]2CS(=O)(=O)C[C@@H]2NCc2ccc(OC)cc2)cc1
    0.24, -2.4
CC(=O)OCC(=O)[C@@]1(O)CC[C@H]2[C@@H]3CCC4=CC(=O)CC[C@]4(C)[C@H]3C(=O)C[C@@]21C
    ·, -2
Nc1nc2n(n1)C(c1ccccc1)C1=C(CCCC1)N2 (configuration not stated)
    0.58, -1.7
O=C(Nc1ccc(S(=O)(=O)Nc2nccs2)cc1)C12CC3CC(CC(C3)C1)C2
    ·, -0.75
C/C(=N\O)c1ccc(Sc2ccccc2)cc1
    ·, -2.7
O=C(Nc1ccc2nsnc2c1)c1cc(=O)c2ccc(Br)cc2o1
    0.87, -1.7
Clc1ccc(-c2nc3ccccc3c3nncn23)cc1
    ·, -1.9
COc1cc(OC)c(NS(=O)(=O)c2cc(-c3cc(C)no3)ccc2C)cc1Cl
    -0.37, ·
CC(O)(c1ccc(Cl)cc1)C(CN1CCCCC1)c1ccccc1 (configuration not stated)
    -0.62, -1.1
O=C(Nc1cccc(COC(=O)c2sccc2Cl)c1)c1sccc1Cl
    ·, -1.7
CCC(C)(C)C1CCC2(CC1)NC(CO)(CO)CO2 (configuration not stated)
    ·, -0.56
CCN(C(=O)c1c(C)oc2nc(C)nc(N3CCOCC3)c12)c1ccccc1
    0.99, ·
CCCNC(=O)c1cc(C2CC2)on1
    0.71, -1.1
CCc1nnc2c(N3CCN(Cc4ccccc4)CC3)nc3ccccc3n12
    0.62, ·
CCOC(=O)c1cnc2ccccc2c1Nc1cccc(C)c1
    ·, -0.54
CCCc1nc(-c2ccc(-c3ccc(Cl)cc3)nc2OC)no1
    0.47, -1.6
COc1ccccc1NC(=O)c1sc(=S)n(-c2ccccc2OC)c1N
    -4.8, -0.97
Cn1nnc(NCc2ccccc2OCc2ccc(Cl)cc2)n1
    2, ·

# Later entries
SMILES	HIV TAR-Tat	CDC25B-CDK2 inh
CCC(CO)NC(=O)C(=O)NCc1n[nH]c(=O)c2ccccc12 (configuration not stated)	1.8	·
CCc1ccc(C2C3=C(CC(C)(C)CC3=O)Nc3cc(OC)cc(OC)c32)cc1 (configuration not stated)	0.19	-1.6
Cc1noc2ncn(CC(=O)NC(C)(C)C)c(=O)c12	1.2	·
COC(=O)c1ccc(Cn2nc(-c3ccc(C)cc3)ccc2=O)cc1	1.2	0.89
COc1cccc(-c2noc3ncnc(Nc4cc(OC)ccc4OC)c23)c1	1.8	·
CC1=C(c2ccc(C)cc2)S(=O)(=O)NC1=NC1CCCc2ccccc21 (configuration not stated)	-0.96	-6.8
Cn1c(=O)n(Cc2ccccc2Cl)c(=O)c2c1nc1n2CCN1Cc1ccco1	·	-1.8
O=C(NCCC1=CCCCC1)C1CCN(C(=O)N2CCOc3ccc(Cl)cc32)CC1	0.4	·
COc1ccc(NC(=O)Cn2nc3c(cc2=O)CCC3)cc1Cl	13*	0.37
Cc1nc2c(c(SCCCOc3ccc(Cl)cc3)n1)CCC2	2.1	0.76

# Next part
SMILES	HIV TAR-Tat	CDC25B-CDK2 inh
Cc1ccc(-c2c(N3c4ccccc4CC3C)c(=O)c2=O)cc1 (configuration not stated)	1.5	·
COc1ccc(NC(=O)N2CCn3c(nc4ccccc43)C2)cc1	2	-1.9
CC1CCC(NC(=O)CCC(=O)N2CC(C)Oc3ccccc32)CC1 (configuration not stated)	-0.14	-2.2
O=C(Cn1ncc2c3ccccc3n(Cc3ccccc3F)c2c1=O)NCc1ccc2c(c1)OCO2	0.72	-0.58
CNC(=O)c1c(NC(=O)c2cc(=O)c3ccccc3o2)sc2c1CCCC2	2	-0.57
O=C(NCc1ccccc1Cl)c1c(O)nc2ccccn2c1=O	-0.05	-0.06
CC(=O)N(CC1OC(c2ccc3c(c2)OCO3)=NN1C(C)=O)c1ccc(F)cc1 (configuration not stated)	0.75	·
O=C(CN1CC(=O)N2CCCC2C1=O)NCc1ccc2c(c1)OCO2 (configuration not stated)	2	·
O=C(c1cc2c(=O)oc3ccccc3c2s1)N1CCC(N2CCCCC2)CC1	0.23	-1
CC1CCN(C(=O)c2cc3c(s2)-c2ccccc2SC3)CC1	-0.08	-1.1

# Structures shown so far that contain a CF3 group (two):
SMILES	HIV TAR-Tat	CDC25B-CDK2 inh
CCOC(=O)c1ccc2nc(C(F)(F)F)cc(N3CCN(Cc4ccccc4)CC3)c2c1	·	-2.5
CC(C)(C)c1ccc(C2NC(=O)NC(O)(C(F)(F)F)C2C(=O)c2ccc(Cl)cc2)cc1 (configuration not stated)	·	-2.1

# Additional structures follow:
SMILES	HIV TAR-Tat	CDC25B-CDK2 inh
CN1C(=O)C2(/C(=C(/O)c3ccccc3)C(=O)C(=O)N2CCN2CCOCC2)c2ccccc21 (configuration not stated)	1.5	0.77
Cn1c(=O)c2c(-c3cccc(F)c3)c(Nc3ccccc3)oc2n(C)c1=O	0.62	·
CC(=O)Oc1ccccc1C(=O)Nc1ncc([N+](=O)[O-])s1	2.2	·
O=C(O)c1ccccc1SCc1cc(=O)n2ccsc2n1	0.25	-1.5
COCCn1c(-c2ccncc2)n[nH]c1=S	·	-1.1
CSc1nc(-c2ccccc2)cc(C)c1C#N	-0.25	-1.5
CC1CCN(C(=O)Cn2c(=O)oc3cc(S(=O)(=O)N4CCCCC4)ccc32)CC1	-0.64	-0.55
Cc1ccccc1CNc1nc(N2CCN(C)CC2)nc2c1cnn2C	1.6	·
Cc1ccc(NS(=O)(=O)c2cc(-c3onc(C)c3C)ccc2C)cc1Cl	1.1	·
COc1ccc(NC(=O)Cn2ncn3nc4c(c3c2=O)CCCC4)c(OC)c1	2.2	·

# High-throughput results deposited in PubChem by Center for Chemical Genomics, University of Michigan.
